Ecoli growth: E. coli growth inhibition. Escherichia coli growth, OD600, 23 h; active compounds read low. OD600 absorbance (test concentration not listed). hit rate 0.21% among 330,000. AID 1053175;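 active = OD600 absorbance below the run mean of sample wells minus 3.6 SD, in any replicate, cut at about 0.56 in these data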;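 also: stock transfer was 300 nL into about 60 µL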
HNF4A DNA FP: change in binding of human HNF4 alpha to DNA; HNF4a-FITC DNA binding, fluorescence polarization, 1 h; hit rate 0.3% among 360,000; P41235; AID 1224865; activity change, % at 10 µM; in the data active = activity change above about 30%, passing the limit was not always enough;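 also: controls were the assay level and a saturating level of protein; the project sought stronger binding though the title names inhibitors; some compounds called inactive have numbers as strong as hits; positive values seem to mean higher polarization but the record does not say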
Target sequence (P41235 whole entry, looked up): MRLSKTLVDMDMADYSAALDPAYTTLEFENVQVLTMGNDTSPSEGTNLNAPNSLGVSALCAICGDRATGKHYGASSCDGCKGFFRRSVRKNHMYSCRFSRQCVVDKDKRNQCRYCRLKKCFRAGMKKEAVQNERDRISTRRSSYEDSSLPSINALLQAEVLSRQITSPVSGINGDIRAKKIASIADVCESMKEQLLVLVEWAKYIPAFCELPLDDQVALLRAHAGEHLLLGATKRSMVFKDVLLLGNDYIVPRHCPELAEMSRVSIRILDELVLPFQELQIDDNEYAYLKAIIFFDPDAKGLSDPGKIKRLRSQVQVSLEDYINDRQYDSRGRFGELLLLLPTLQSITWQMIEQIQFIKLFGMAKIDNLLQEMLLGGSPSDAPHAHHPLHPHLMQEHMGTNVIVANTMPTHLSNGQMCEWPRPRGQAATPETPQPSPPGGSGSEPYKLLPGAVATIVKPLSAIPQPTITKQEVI
RanGTP-Imp inh: inhibitors of RanGTP-importin-beta interaction, primary screen, biochemical, FRET, CFP-Ran, YFP-importin-beta, homogeneous; inhibition, % (concentration not given with the values); hit rate 1.1% among 300,000; cell-free CFP-Ran/YFP-importin-beta FRET ratio;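 active = most replicates above 15%; inconclusive = exactly half above 15%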;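 also: 0% = DMSO wells and 100% = Ran loaded with GDP instead of GTP; wells of about 40 µL received 100 nL stock; the first replicate is given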
FGF22 binding: shifts melting point of recombinant human FGF22. recombinant FGF22 thermal shift, SYPRO orange fluorescence; percent of sucrose octasulfate shift, DMSO zero. AID 651658. calls only at 9.99 µM. hit rate 1.5% among 340,000. Q9HCT0;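 active = melting point raised past a set limit in the mean and every replicate; inconclusive = no clear call; three in four hits are not shown here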
Vif TR-FRET: inhibitors of Vif binding to APOBEC3G peptide, primary screen, biochemical, TR-FRET, GST-Vif 1-94, biotin-A3G peptide, dose response retest (AID 1117319); TR-FRET GST-Vif / biotin-A3G peptide binding; higher % means a stronger effect; test concentration not given here; strong numbers were not always called active; hit rate 0.57% among 260,000; inhibition, %, or IC50 in µM where a hit was titrated;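 active = above the screen mean plus three standard deviations and confirmed in dose response; inconclusive = results disagree or hit not tested in dose response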;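 also: Vif residues 1-94 fused to GST binding biotinylated APOBEC3G peptide 110-148; 0% = full assay without inhibitor and 100% = GST in place of GST-Vif; retest series ran down from 100 µM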
UCH37 inh: blocks the human deubiquitinase UCH37 | Q9Y5K5 | purified proteasome/UCH37, Ub-AMC cleavage fluorescence | inhibition, % (test concentration not listed) | hit rate 0.33% among 330,000 | AID 588478;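 active = mean of two replicates above 20%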;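 also: 0% = compound-free wells with enzyme and 100% = wells lacking proteasome; stock transfer was 100 nL into about 20 µL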
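Material: Human UCH37 enzyme supplied as purified proteasome complex | Schedule: 30 min preincubation with enzyme, 25 min cleavage at room temperature | Detection: AMC fluorescence 355/460 nm | Measure: % inhibition of Ub-AMC cleavage fluorescence | Controls: Wells without proteasome as full block, compound-free enzyme plus substrate as uninhibited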
MLL AF4-AF9 inh: inhibitors of human MLL-AF4/AF9 interaction. P42568. AlphaScreen, biotin-AF4 peptide binding to FLAG-AF9. inhibition, % at 10 µM. hit rate 0.47% among 350,000;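 active = every replicate reaching a set inhibition limit, whatever the replicate mean, cut at about 25% in these data; inconclusive = mean inhibition reaches that limit but some replicates miss it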;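 also: 0% = plate neutral control median and 100% = total signal loss; the record names both 10 and 1 µM as test concentration; the first replicate is given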
Target sequence (P42568 whole entry, looked up): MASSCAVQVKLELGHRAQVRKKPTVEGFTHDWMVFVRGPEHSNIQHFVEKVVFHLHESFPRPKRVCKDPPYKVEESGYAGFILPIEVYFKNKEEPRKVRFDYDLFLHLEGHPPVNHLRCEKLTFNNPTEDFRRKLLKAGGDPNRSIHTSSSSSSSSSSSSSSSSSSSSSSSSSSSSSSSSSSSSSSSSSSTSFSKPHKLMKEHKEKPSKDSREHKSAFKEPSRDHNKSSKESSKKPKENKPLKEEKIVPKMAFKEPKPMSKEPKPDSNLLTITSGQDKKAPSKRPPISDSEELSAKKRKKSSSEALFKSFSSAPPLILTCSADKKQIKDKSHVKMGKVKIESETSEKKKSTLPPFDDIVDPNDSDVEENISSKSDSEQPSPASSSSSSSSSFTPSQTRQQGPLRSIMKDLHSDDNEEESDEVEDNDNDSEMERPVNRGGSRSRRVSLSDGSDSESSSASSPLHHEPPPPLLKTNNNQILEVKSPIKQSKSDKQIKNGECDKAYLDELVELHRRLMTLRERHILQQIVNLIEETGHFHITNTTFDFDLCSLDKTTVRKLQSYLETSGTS
Starred values were filed as active, the others as inactive; i = inactive; u = inconclusive; x = not tested or not shown; & = joins results of further samples. A portion of the library; the hit share may differ from the screen's.

SMILES,Ecoli growth,HNF4A DNA FP,RanGTP-Imp inh,FGF22 binding,Vif TR-FRET,UCH37 inh,MLL AF4-AF9 inh
COc1ccc2oc(C(=O)N3CCCc4ccccc43)c(C)c2c1,0.62,-2.0,5.3,i,1%,0.0,-21
CC(C)S(=O)(=O)C/C(N)=N/OS(=O)(=O)c1ccc(Cl)cc1,0.66,-0.4,6.1,i,-1%,0.9,x
COc1ccc(C2CCCN2C(=S)Nc2cccc(C)c2C)cc1OC (stereo not given),0.65,3.2,3.3,i,-19%,7.9,2.6
CC(C)(C)NC(=S)N1CCC(C(=O)c2ccc(F)cc2)CC1,0.71,0.2,-1.0,i,x,0.5,2.9
CC(=O)c1c(C)n(-c2ccc(Br)cc2)c2ccc(O)cc12,0.68,0.2,-2.1,i,10%,0.9,-5.7
COc1cccc(C(=O)N2CCN(c3ncccn3)CC2)c1,0.66,1.5,-0.3,x,-1%,-1.0,x
CC1=CC(C)(C)N2C(=O)C3(C(C#N)=C(N)OC4=C3C(=O)CC(C)(C)C4)c3cccc1c32 (stereo not given),0.72,x,4.6,x,-3%,3.6,x
C=CCNC(=O)c1ccccc1NC(=O)C1COc2ccccc2O1 (stereo not given),0.74,4.0,x,i,0%,3.8,-0.5
CCCC(C(=O)Nc1ccc(S(=O)(=O)N2CCCC2)cc1)c1ccccc1 (stereo not given),0.65,-1.1,0.4,i,2%,2.2,-1.6
CS(=O)(=O)c1cccc(C(=O)Nc2ccc(-c3nc4ccccc4[nH]3)cc2)c1,0.72,4.7,-0.2,i,x,-162,-0.1
CCN1C(=O)CC(SC2CC(=O)N(CC)C2=O)C1=O (stereo not given),x,0.3,x,i,-5%,x,0.4
CCc1ccc(NC(=O)c2ccccc2SC)cc1,0.72,-2.1,-1.9,i,-3%,3.8,1.2
C#CCOCCOCCOCCNc1nc(N2CCN(C(=O)[C@H](C(C)C)n3cc(CCO)nn3)CC2)nc(N2CCN(C(=O)[C@H](CCCCN)n3cc(CCCC)nn3)CC2)n1,x,0.3,-2.9,i,10%,-3.8,4.0
Cc1c(C(=O)NCC2CC2)sc(=O)n1Cc1cccc(F)c1,x,0.8,x,i,x,x,2.3
CC1=C(C(=O)N2CCc3ccccc32)C2(CCC(C)CC2)OC1=O (stereo not given),0.7,2.8,x,x,6%,2.3,x
Cn1ccc2c(-c3ccc(F)cc3F)cc3c(c21)C1CCC3C1 (stereo not given),x,-0.5,x,i,x,x,0.6
COc1ccc(CNC(=O)N[C@H](C(=O)O)C(C)C)cc1OC,0.72,2.1,-2.7,i,u,2.3,2.9
N=c1sccn1CC(=O)Nc1cccc2ccccc12,0.7,-3.7,3.0,x,-3%,20*,x
O=C(c1ccc(OC2CCN(CCc3ccccc3)CC2)cc1)N1CCC[C@H]1CO,0.72,2.4,-2.5,i,x,0.9,-1.3
CCCCOc1ccc(/C=C/C(=O)NCCc2nc3ccccc3[nH]2)cc1,0.69,3.5,-1.2,x,7%,1.2,x

Brought forward from above: 2 entries, followed by the next part.
SMILES,Ecoli growth,HNF4A DNA FP,RanGTP-Imp inh,FGF22 binding,Vif TR-FRET,UCH37 inh,MLL AF4-AF9 inh
O=C(c1ccc(OC2CCN(CCc3ccccc3)CC2)cc1)N1CCC[C@H]1CO,0.72,2.4,-2.5,i,x,0.9,-1.3
CCCCOc1ccc(/C=C/C(=O)NCCc2nc3ccccc3[nH]2)cc1,0.69,3.5,-1.2,x,7%,1.2,x
Cc1nn(Cc2c(F)c(F)c(F)c(F)c2F)c(C)c1NC(=O)c1ccnn1C,0.66,-1.0,3.2,i,x,1.7,-1.6
Cc1ccc(C)c(NC(=O)C2=CCN(S(=O)(=O)c3ccc(F)cc3)CC2)c1,0.71,-1.2,-1.8,i,x,3.4,-40
CC(C)CC(=O)Nc1cc2c3c(c1)C(C)C(=O)N3CCC2 (stereo not given),0.69,-3.0,-1.7,i,x,-0.1,-1.2
O=[N+]([O-])/C(C(Cl)=C(Cl)Cl)=C(\Sc1ccccc1)N1CCCCC1,0.7,2.3,u,i,x,5.4,13
O=C(O)Cc1ccc2c(c1)N(S(=O)(=O)c1cccs1)CC(C(=O)O)O2 (stereo not given),0.71,0.2,-2.7,i,x,4.7,0.4
N#CCSc1nnc(COc2cccc3ccccc23)n1-c1cccc(Cl)c1,0.72,1.4,5.5,x,-3%,2.6,x
Cc1ccc(C(=O)NCC(=O)NCC(=O)OCc2ccc(F)cc2)cc1,0.69,0.3,-0.1,i,-10%,3.5,1.1
Cc1cc2c(ncn2C)c(NS(=O)(=O)c2ccc(F)cc2)c1C,0.68,0.7,-2.6,i,17%,2.5,-1.4
CCN(CC)S(=O)(=O)c1ccc(-c2nnc(SCc3nnc(-c4ccc(C)cc4)o3)o2)cc1,0.72,-1.0,0.5,x,-5%&-5%,4.5,x
CN(C)c1ccc(NC(=O)CCN2C(=O)c3cccc([N+](=O)[O-])c3C2=O)cc1,0.71,-0.1,6.6,x,11%,0.7,1.8
O=C(COC(=O)CNC(=O)c1ccc([N+](=O)[O-])o1)Nc1ncc(C(F)(F)F)cc1Cl,0.64,2.2,x,i,-10%,0.8,-2.2
CN(C)S(=O)(=O)Oc1ccsc1C(=O)Nc1cccc(Cl)c1Cl,0.69,3.9,4.6,x,4%,5.4,x
COc1cccc(C2CC(=O)Nc3c2c(=O)n(C)c(=O)n3C)c1OC (stereo not given),0.73,-0.8,u,i,10%,5.8,7.7
COc1ccc(Nc2nnc(C)c(=O)[nH]2)cc1,0.68,-1.3,-2.7,x,-1%,-2.5,x
CCc1ccccc1NC(=O)CNC(=O)c1n[nH]c(=O)c2ccccc12,0.67,-4.2,x,i,-11%,-0.7,-6.2
COc1ccc(-c2sc3ccccc3c2-c2ccc(O)cc2)cc1,x,2.8,x,i,x,x,3.3
Cn1c(=O)c([N+](=O)[O-])c(Oc2ccccc2)c2ccccc21,0.68,-3.5,2.9,i,x,0.4,0.8
CC(=O)Oc1cc2c(C(=O)NCCN3CCOCC3)c(C)oc2c2ccccc12,0.71,3.0,4.6,x,u,11,x
CC(C)N=C(NS(=O)(=O)c1ccc(Br)cc1)c1ccc(Cl)cc1,0.66,-3.4,3.2,i,-2%,4.3,-3.0
CCOc1ccc(N(CC(=O)NC2CCCC2)S(=O)(=O)c2c(C)noc2C)cc1,0.71,-0.4,u,x,-5%,3.7,x
C=CCN1C(=O)/C(=N/n2cnnc2)c2ccccc21,x,-0.4,0.6,x,3%,x,x
C/C(=N/NC(=O)c1ccc(Br)o1)c1cccs1,x,-0.7,-3.4,i,-1%,x,-0.7
COc1cc(C(=O)O)ccc1OC(C)=O,0.65,-1.1,1.8,x,-4%,-0.5,x
COc1ccc(-c2[nH]c(-c3ccc(Cl)cc3)nc2SCC(=O)Nc2nccs2)cc1,0.79,3.9,1.3,i,2%,1.0,15
COc1cccc(/C=N/NC(=O)c2ccc(-c3ccccc3)cc2)c1O,x,-0.5,2.9,x,0%,x,x
O=C(O)/C=C/C(=O)Nc1ccc(-c2ccccc2)cc1,0.64,-2.1,u,i,8%&15%,2.4,-1.3
C/C(=N\NC(=O)c1csc2ccccc12)c1ccc(O)cc1,x,-2.0,5.3,x,-8%,x,x
COC(=O)c1cccc2c1-c1ccccc1/C2=N\NC(N)=O,x,4.0,-3.1,i,-1%,x,4.4
CC(C)CCn1c(N2CCc3ccccc3C2)nc2c1c(=O)[nH]c(=O)n2C,0.72,-2.3,u,i,0%,4.5,-4.8
Cn1nc(C(C)(C)C)c(NC(=O)c2ccc(F)cc2)c1C(C)(C)C,0.69,0.2,-1.1,i,-5%,1.6,0.2
CC(=O)Nc1ccc(S(=O)(=O)NCCC(=O)OCC(=O)c2cc(C)ccc2C)cc1,0.65,-1.4,x,i,-1%,5.2,0.6
O=C(Nc1nccs1)C1CCN(S(=O)(=O)c2cccs2)CC1,0.72,1.4,-4.5,x,-3%,0.6,-0.2
Cc1ccccc1NC(=O)Cn1cccc1,0.63,2.8,1.2,i,-3%,2.0,-27
O=C(OCc1ccccc1)N1CCc2ccccc21,0.67,2.6,-0.9,i,x,1.2,-3.4
Cc1c(NC(=O)/C=C/C(=O)O)cccc1[N+](=O)[O-],0.73,2.2,-0.8,x,5%,3.9,x
O=C(COC(=O)c1ccc2c(c1)OCO2)Nc1ccccc1F,0.66,-1.3,x,i,x,4.7,-1.4
CC12CCC(C(=O)Nc3nc4ccc(Br)cc4s3)(OC1=O)C2(C)C (stereo not given),0.68,-3.5,0.1,i,2%,3.1,0.3
Nc1nnc(SCCOc2ccc(Br)cc2)s1,0.7,3.8,-2.6,x,2%,2.3,x
CCOc1ccc(NC(=O)CCNS(=O)(=O)c2ccc3c(c2)c(=O)n(C)c(=O)n3C)cc1,0.66,-2.1,2.1,i,-11%&-1%,-0.8,13
CCCCN1C(=O)C(O)=C(C(C)=O)C1c1ccccc1 (stereo not given),0.74,-2.3,-0.6,x,-4%,4.8,x
Nc1cc(=O)[nH]c(SCC(=O)Nc2ccc(N3CCOCC3)cc2)n1,0.67,-0.3,x,i,x,3.5,-3.8
COc1ccc(OC)c(N2C(N)=NC(N)=NC23CCCC3)c1,0.82,-0.1,1.9,x,16%,4.8,x
COc1ccc(C)cc1-n1nnnc1SC/C(O)=C(\C#N)c1nc2ccccc2[nH]1,x,6.7,2.8,x,9%,x,x
O=C(C1CC1)N1N=C(c2ccccc2)CC1(O)C(F)(F)C(F)(F)F (stereo not given),0.73,-3.5,2.7,i,x,0.2,0.3
O=C(NCCSc1ccccc1)c1ccccc1F,x,-1.5,-3.6,i,-4%,x,3.8
CCOC(=O)c1[nH]c2ccccc2c1NC(=O)c1ccc(Br)o1,0.69,-2.3,-1.3,i,18%,3.0,5.7
Cc1nccn1CCN(C)Cc1cn(Cc2ccccc2)nc1-c1ccc2c(c1)OCO2,0.65,-3.7,-0.5,i,u,2.1,9.1
O=c1c(-c2ccc(Oc3ccccc3)cc2)[n+]([O-])c2ccccc2n1OCc1ccccn1,0.68,0.2,-2.7,x,0%,-0.2,x
Cc1ccc(CNC(=O)COC(=O)c2cc(C)oc2C)cc1,0.68,-3.8,x,i,x,2.1,1.7
O=C(CN(Cc1ccccc1F)S(=O)(=O)c1ccc(Cl)cc1)NCCCO,0.74,1.2,-1.0,i,27%,4.9,-1.9
COc1ccc(/C=C2\S/C(=N/S(=O)(=O)c3cccs3)NC2=O)cc1,0.7,-4.3,u,i,8%,9.4,-2.9
CCOC(=O)N1CCN(C(=O)CN(c2cccc(C(F)(F)F)c2)S(=O)(=O)c2ccccc2)CC1,0.67,0.8,u,x,23%&-1%,-0.1,x
O=C(CSc1nnc(NC(=O)C2CC2)s1)Nc1ccccc1,0.62,0.6,-1.1,i,x,3.8,-1.0
O=C(Cn1c(=O)oc2cc(S(=O)(=O)N3CCCC3)ccc21)NC1CCCc2ccccc21 (stereo not given),0.7,2.4,u,i,2%,4.1,8.9
CC(Sc1nc2ccccc2n1C)C(=O)NC(c1ccccc1)c1ccccc1 (stereo not given),0.72,3.7,-1.9,x,26%,-1.8,x

Bioassay records as filed in PubChem BioAssay.
